Mtb growth = Mycobacterium tuberculosis H37Rv growth inhibition, putative kinase inhibitor library, confirmatory dose response (AID 2842). M. tuberculosis H37Rv growth inhibition; higher % means a stronger effect; some inactives read as strong as hits. one-dose inhibition, % at 10 µg/mL; IC90 in µg/mL for titrated hits. 24,000 compounds, 5.2% hits;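 active = confirmed in a dose series; about a fifth of its hits are not listed in these tables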;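 also: bacteria incubated one week before Alamar blue readout; 0% = bacteria only wells and 100% = bacteria with high antibiotic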
* hit, by the source's call.

SMILES	Mtb growth
CCOC(=O)c1nn(-c2ccc(OC)cc2)c(=O)c2c(NC(=O)Cc3ccc([N+](=O)[O-])cc3)scc12	0%
Cc1cc(NS(=O)(=O)c2ccc(NC(=O)COc3ccc(Br)cc3)cc2)no1	-14%
O=C(NC1CC(=O)N(c2cccc(F)c2)C1)c1cc2ccccc2oc1=O (stereo unspecified)	30%
CCOC(=O)c1nn(-c2ccc(F)cc2)c(=O)c2c(NC(=O)C(c3ccccc3)c3ccccc3)scc12	-3%
Cc1ccnc(NC(c2ccc(F)cc2)c2ccc3cccnc3c2O)c1 (stereo unspecified)	-3%
CC1CC(Nc2ncnc(N)c2[N+](=O)[O-])CC(C)(C)C1 (stereo unspecified)	-1%
CCN1CCc2c(sc(NC(=O)c3cc(Cl)cc(Cl)c3)c2C(N)=O)C1	2%
O=C(COc1ccc(Cl)cc1)N1CCN(c2ccc(N3CCCCC3)nn2)CC1	14µg/mL*
CC(=O)c1sc(NC(=O)/C=C/c2ccccc2)nc1-c1ccccc1	4%
O=C(CSc1nc2c(c(=O)n1-c1ccccc1)SCC2)Nc1ccc2c(c1)OCO2	8%
CCOc1ccccc1C1C(C(=O)OC)=C(C)NC2=C1C(=O)CC(C)(C)C2 (stereo unspecified)	-7%
O=C1N=c2ccccc2=C1c1sc(=S)n(NS(=O)(=O)c2ccccc2)c1O	-14%
COC(=O)C1CCN(C(=O)C(=O)c2c[nH]c3ccccc23)CC1	-1%
Cn1c(=O)c2c(SCC(=O)Nc3nc4ccccc4s3)nc(-c3ccc([N+](=O)[O-])cc3)nc2n(C)c1=O	5%
Nc1nc(SCc2ccc([N+](=O)[O-])cc2)[nH]c(=O)c1NC(=O)c1ccccc1F	-10%
COc1cccc2sc(Nc3sc4c(c3C(N)=O)CCCC4)nc12	78%
O=C(Nc1c(C(=O)Nc2ccc(OC(F)(F)F)cc2)oc2ccccc12)c1cc2ccccc2o1	5%
COc1cc(/C=N/NC(=O)c2cc(-c3ccc4c(c3)OCO4)n[nH]2)ccc1O	-7%
CC(=O)c1ccc(C(=O)Nc2sc3c(c2C#N)CCN(C(C)=O)C3)cc1	-17%
COC(=O)Cn1c(=NC(=O)c2ccc(C(=O)OC)cc2)sc2cc(F)ccc21	-3%
O=C(/C=C/c1cccs1)OCC(=O)c1ccc([N+](=O)[O-])cc1	1%
COc1cccc2c(=O)n(CC(=O)Nc3ccc(OC(F)(F)F)cc3)ccc12	-4%
COc1ccc(CC(=O)Nc2nnc(-c3ccccc3C)s2)cc1	-5%
CCOc1ccc(C(=O)c2cn(Cc3ccccc3OC)c3c(F)cc(F)cc3c2=O)cc1	-7%
Cc1cc(NC(=O)CCC2CCCC2)nc2c1c(=O)oc1ccccc12	27%

The list goes on; it opens with the five that closed the last part.
SMILES	Mtb growth
O=C(/C=C/c1cccs1)OCC(=O)c1ccc([N+](=O)[O-])cc1	1%
COc1cccc2c(=O)n(CC(=O)Nc3ccc(OC(F)(F)F)cc3)ccc12	-4%
COc1ccc(CC(=O)Nc2nnc(-c3ccccc3C)s2)cc1	-5%
CCOc1ccc(C(=O)c2cn(Cc3ccccc3OC)c3c(F)cc(F)cc3c2=O)cc1	-7%
Cc1cc(NC(=O)CCC2CCCC2)nc2c1c(=O)oc1ccccc12	27%
Cc1ccnc(SCc2cc(=O)c(OC(=O)c3ccc(Cl)cc3)co2)n1	-15%
CCCCC(=O)Nc1c(C(=O)Nc2ccccc2OCC)oc2ccccc12	11%
Cc1ccc(SC(C)C(=O)Nc2nnc(C(C)C)s2)cc1 (stereo unspecified)	18%
CCOc1cc(C(=O)Nc2nnc(-c3ccc(F)cc3)s2)cc(OCC)c1OCC	6%
Brc1cccc2sc(N3CCOCC3)nc12	1%
COCCOC(=O)c1c(C)oc2ccc(OC(C)C(=O)O)cc12 (stereo unspecified)	-3%
CCCCCOC(=O)CSc1nc2c(c(=O)[nH]c(=O)n2C)n1C(C)C	7%
Cc1oc(-c2ccccc2Cl)cc1-c1nn2c(-c3ccco3)nnc2s1	-8%
O=C1CN(C(=O)c2cc(Cl)ccc2Cl)C(c2ccccc2)c2cc(Cl)ccc2N1 (stereo unspecified)	6.6µg/mL*
O=C(COc1cccc2ccc(N3CCCCC3)nc12)NCc1ccc2c(c1)OCO2	7%
COc1cccc(Cn2cc3c(-c4ccc(F)cc4)nnc-3c3cc(C)ccc32)c1	9%
COC(=O)c1ccc(NC(=O)CSc2ncnc3c2nnn3-c2ccc(F)cc2)cc1	-5%
Cc1ccc(-n2ncc3c(NNC(=O)c4cccc(Cl)c4)ncnc32)c(C)c1	6%
C/C(=N/NC(N)=S)c1ccc(O)c(O)c1O	1%
Cc1cccn2c(=O)c(/C=N/O)c(Nc3ccc(Cl)cc3)nc12	-2%
Cc1cccc(Cn2cc3c(-c4ccc(C)c(C)c4)nnc-3c3cc4c(cc32)OCCO4)c1	3.5µg/mL*
O=C(Nc1nnc(-c2ccccc2Cl)s1)c1ccccc1Cl	9%
CN(C1CCCCC1)S(=O)(=O)c1ccc(C(=O)Nc2nc3ccc4ccccc4c3s2)cc1	75%
CCOC(=O)c1oc2ccccc2c1NC(=O)c1cc(OC)c(OC)c(OC)c1	0%
Cc1cccc(-c2nnc(NC(=O)c3ccccc3C(F)(F)F)s2)c1	0%
COc1ccc2nc(-c3cccc(NC(=O)C4CCCCC4)c3)cn2n1	15%
Cc1ccc(NC(=O)CSc2ncc(S(=O)(=O)c3ccccc3)c(=O)[nH]2)cc1C	-15%
CCCCOc1ccc(C(=O)Nc2nnc(C)s2)cc1	-4%
COc1ccc(C(=O)Nc2c(N)nc(SCC(=O)Nc3cc(C(F)(F)F)ccc3Cl)[nH]c2=O)cc1OC	-4%
COc1ccc(-c2nc(NC(=O)c3cccc(C)c3)sc2C)cc1	5.8µg/mL*

(listing goes on)
SMILES	Mtb growth
Cc1cccc(NC(=O)Cn2cc(S(=O)(=O)c3ccc(F)cc3)c(=O)c3cc4c(cc32)OCO4)c1	5%
Cc1nnc(NC(=O)c2ccc3c(c2)OCO3)s1	-5%
COc1ccc(NC(=O)C2=C(C)Nc3ncnn3C2c2cccc(O)c2)cc1 (stereo unspecified)	-1%
Cc1ccc(NC(=O)CSc2ccc3nnc(-c4ccc(Cl)cc4)n3n2)c(C)c1	-2%
COc1ccccc1-c1nnc(NC(=O)C(C)Sc2nncn2C)s1 (stereo unspecified)	1%
CCS(=O)(=O)c1ccc(CC(=O)Nc2nnc(-c3cccs3)o2)cc1	-2%
Clc1ccc(Cn2ncc3c(NCc4cccnc4)ncnc32)cc1	-6%
CS(=O)(=O)c1cccc(-c2nnc(NC(=O)c3ccc4ccccc4c3)o2)c1	-3%
Cc1c(N=C2C(=O)Nc3ccccc32)c(=O)n(-c2ccccc2)n1C	55%
CCOC(=O)c1nn(-c2ccccc2)c(=O)c2c(NC(=O)/C=C/c3ccc4c(c3)OCO4)scc12	-2%
COc1ccc(N2CCN(c3nc4c(c(=O)n(C)c(=O)n4C)n3CCSc3nc4ccccc4o3)CC2)cc1	-4%
COc1ccc(NC(=O)c2oc3ccccc3c2NC(=O)c2ccc(Cl)cc2Cl)c(OC)c1	-2%
CCC(Sc1ccc(C)cc1)C(=O)Nc1nnc(-c2ccccc2OC)s1 (stereo unspecified)	2%
COc1ccc2sc(Nc3ccc4c(c3)OCCO4)nc2c1	1%
CCOc1cc(C(=O)NCCc2cc3cc(C)c(C)cc3[nH]c2=O)cc(OCC)c1OCC	-2%
O=C(Cc1ccccc1)Nc1nc(-c2nc3ccccc3s2)cs1	7%
Cc1ccc2c(c1)C(c1ccc(F)cc1)N(C(=O)c1cc3ccccc3oc1=O)CC(=O)N2 (stereo unspecified)	21%
Cc1ccc(/C=C/C(=O)Nc2ccc3oc(=O)ccc3c2)cc1	-7%
CCOC(=O)c1nn(-c2ccc(Cl)cc2)c(=O)c2c(NC(=O)c3ccc(S(=O)(=O)N4CCCCC4)cc3)scc12	-4%
O=C1NC2=C(C(=O)N(CCO)C2)C(c2ccc(OCc3ccccc3)cc2)N1 (stereo unspecified)	-8%
O=C(Cn1ccn(-c2ccc(Br)cc2)c(=O)c1=O)Nc1ccccc1Cl	-11%
COc1ccc2oc(=O)c(/C(C)=N/Nc3ccccc3)cc2c1	49%
OC(CNCc1ccco1)Cn1c2ccccc2c2ccccc21 (stereo unspecified)	59%
O=C(CSc1nnc2ccc(-c3cccnc3)nn12)NCc1ccc(Cl)cc1	-18%
C=CCN1C(=O)CC(Sc2ccccc2C(=O)O)C1=O (stereo unspecified)	-15%

Shown in markdown: part of the list above.
| Molecule | Mtb growth |
| --- | --- |
| O=C(CSc1nnc2ccc(-c3cccnc3)nn12)NCc1ccc(Cl)cc1 | -18% |
| C=CCN1C(=O)CC(Sc2ccccc2C(=O)O)C1=O (stereo unspecified) | -15% |

In the list so far, these contain bromine.
SMILES	Mtb growth
Cc1cc(NS(=O)(=O)c2ccc(NC(=O)COc3ccc(Br)cc3)cc2)no1	-14%
Brc1cccc2sc(N3CCOCC3)nc12	1%
O=C(Cn1ccn(-c2ccc(Br)cc2)c(=O)c1=O)Nc1ccccc1Cl	-11%

(listing goes on)
SMILES	Mtb growth
CC1CCc2sc(NC(=O)c3ccc(Br)s3)c(C(N)=O)c2C1 (stereo unspecified)	-9%
CC1=C(C(N)=O)C(c2ccccc2OCc2ccccc2)n2ncnc2N1 (stereo unspecified)	8%
COc1ccc(NC(=O)c2oc3ccccc3c2NC(=O)c2ccccc2Cl)cc1	6%
O=C(CCCl)Nc1c(C(=O)Nc2ccc(F)c(F)c2)oc2ccccc12	3%
Cc1nnc(NC(=O)CSc2c(-c3ccccc3)[nH]c3ccccc23)s1	61%
CC1CCc2nc(NC(=O)c3ccc(-c4ccccc4)cc3)sc2C1 (stereo unspecified)	0%
COc1cccc2cc(-c3cc(=O)oc4ccc(O)cc34)oc12	0%
O=C(Cn1cnc2c(cnn2-c2ccccc2)c1=O)Nc1cccc(F)c1	-7%
CCOC(=O)C1=C(N)Oc2c(oc(CO)cc2=O)C1c1ccccc1F (stereo unspecified)	1%
Nc1ncnc(Nc2ccc(Cl)cc2C(=O)c2ccccc2)c1[N+](=O)[O-]	-3%
COc1ccc2nc(-c3ccc(NC(=O)Cc4ccc(F)cc4)cc3)cn2n1	-4%
Cc1ccc(NC(=O)CCN2C(=O)/C(=C\c3ccco3)SC2=S)c(C)c1	-4%
Cc1nc2c(ccc3nc(NC(=O)c4cc(=O)c5ccccc5o4)sc32)s1	6%
COc1ccc(CNC(=O)C(=O)Nc2cc3c4c(c2)C(C)C(=O)N4CCC3)cc1 (stereo unspecified)	4%
O=C(CCSc1ccccc1)Nc1nc2ccc(Br)cc2s1	5%
O=C(Nc1ccc(Cl)c(Cl)c1)c1cccc(-n2cnnn2)c1	81%
O=C(CSc1nnnn1-c1ccccc1)Nc1ccccc1C(=O)O	-2%
COc1ccccc1NC(=O)c1oc2ccccc2c1NC(=O)c1ccc(C)c([N+](=O)[O-])c1	-3%
CC(=O)c1ccc(NC(=O)CSc2nnc(-c3ccncc3)o2)cc1	-7%
O=C(CSc1nnc2ccc(-c3ccc4c(c3)OCO4)nn12)Nc1ccccc1	-18%
CCc1ccccc1NCC(=O)Nc1ncc(Cc2cccc(Cl)c2)s1	4%
O=C(CCOc1ccccc1)Nc1ccc2c(c1)C(=O)NC2=O	-10%
COc1ccc(C(=O)Nc2cccc3c2C(=O)N(C)C3=O)cc1OC	-3%
O=c1[nH]c(Nc2ccc3c(c2)OCCO3)nnc1-c1ccccc1	-5%
O=C(Nc1ccc(Br)cc1F)c1cnc2sccn2c1=O	-9%

An excerpt from above in order of count of non-hydrogen atoms, ascending.
SMILES	Mtb growth
O=C(Nc1ccc(Br)cc1F)c1cnc2sccn2c1=O	-9%
CCc1ccccc1NCC(=O)Nc1ncc(Cc2cccc(Cl)c2)s1	4%
Cc1nc2c(ccc3nc(NC(=O)c4cc(=O)c5ccccc5o4)sc32)s1	6%

Following part.
SMILES	Mtb growth
CC1CCN(C(=O)CSc2nc3[nH]ncc3c(=O)[nH]2)CC1	0%
CC(C)c1ccc(-c2csc(NC(=O)c3ccc(S(=O)(=O)N(C)c4ccccc4)cc3)n2)cc1	19%
COc1ccc(OC)c(NC(=O)COC(=O)c2cc(C(C)=O)n3ccccc23)c1	-7%
Cc1ccc(-n2ncc3c(=O)n(CC(=O)Nc4ccc([N+](=O)[O-])cc4)cnc32)cc1	6.9µg/mL*
CC(C)S(=O)(=O)c1cccc(C(=O)Nc2nnc(-c3ccc4c(c3)OCCO4)o2)c1	34%
CCc1nnc(NC(=O)CSc2nc3[nH]ncc3c(=O)[nH]2)s1	2%
CCOC(=O)C1CCN(C(c2ccccc2F)c2sc3nc(C)nn3c2O)CC1 (stereo unspecified)	2%
O=C(Cn1cc(C(=O)c2ccccc2)c(=O)c2cc3c(cc21)OCCO3)Nc1ccc(F)cc1	9%
O=C(NNc1ncnc2c1cnn2-c1ccc(Cl)c(Cl)c1)c1ccc(Cl)cc1	-3%
Cn1c(SCC(=O)Nc2ccc3c(c2)OCO3)nnc1-c1c[nH]c2ccccc12	-4%
Cc1ccc2oc(-c3cc(Br)ccc3O)cc(=O)c2c1	-2%
Cc1ccc(NC(=O)CSc2nnc3ccc(-c4ccccn4)nn23)cc1F	5%
COc1ccc(NC(=O)CSc2nc(-c3ccc(OC)cc3)nc3c2c(=O)n(C)c(=O)n3C)cc1	-6%
Cc1cc2cc(CCNC(=O)CCc3ccccc3)c(=O)[nH]c2cc1C	2%
COc1ccc(C(=O)Nc2cc(C)c3c(=O)oc4ccccc4c3n2)cc1OC	-5%
Cc1cccc(NC(=O)CSc2nnc(-c3cccnc3)o2)c1C	-5%
Cc1ccc(NC(=O)CSc2nnc3cc(C)c4ccccc4n23)c(C)c1	28%
COc1ccc(-c2nnc(NC(=O)c3ccc(Cl)s3)o2)cc1	0.94µg/mL*
O=C(Nc1cccc(F)c1)c1oc2ccccc2c1NC(=O)c1c(F)cccc1Cl	2%
CCc1ccc(Nc2ncnc3nc[nH]c23)cc1	21%
CCCCCCC1C(C#N)=C(N)OC2=C1C(=O)CCC2 (stereo unspecified)	7%

This is a subset; rates above refer to the full screens.
